Sa growth 42C: S. aureus growth inhibition. AID 720641. S. aureus RN4220 growth, OD600, 20 h, 42 °C; active compounds read low. actives 0.53% (n = 170,000). relative growth, % (test concentration not listed);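 active means growth at 42 °C up to 50% and 20 or more points under that at 30 °C, or under 10% at both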;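 further: 300 nL library stock went into each well; scaled to the means of positive and negative controls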
GIV Gai3 FP: blocks GIV peptide binding to rat Galpha-i3; P08753; percent of control (FP), % (test concentration not listed); Galpha-i3/FITC-GIV peptide fluorescence polarization, 90 min; active compounds read low; scaled: aluminum fluoride 0%, vehicle 100%; actives 0.42% (n = 210,000);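 active means replicate mean at 85% of control or lower, very high polarization wells dropped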;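 further: lower values mean more displacement of the GIV peptide from Galpha-i3; wells of about 15 µL received 100 nL stock; the first replicate is given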
Target sequence (P08753 whole entry, looked up): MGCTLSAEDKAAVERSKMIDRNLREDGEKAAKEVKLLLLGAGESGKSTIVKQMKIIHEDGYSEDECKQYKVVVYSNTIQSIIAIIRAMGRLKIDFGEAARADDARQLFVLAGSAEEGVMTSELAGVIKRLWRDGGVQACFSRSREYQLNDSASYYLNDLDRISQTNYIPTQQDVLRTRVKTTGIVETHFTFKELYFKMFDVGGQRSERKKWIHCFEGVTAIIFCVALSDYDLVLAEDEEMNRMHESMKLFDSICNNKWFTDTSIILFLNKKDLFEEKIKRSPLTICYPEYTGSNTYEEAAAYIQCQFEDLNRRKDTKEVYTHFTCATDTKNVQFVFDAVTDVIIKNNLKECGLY
HCMV UL50-53 inh: disrupts HCMV UL50-UL53 complex binding | actives 0.15% (n = 190,000) | HTRF UL50-UL53 interaction, normalized percent inhibition | inhibition, % (concentration not given with the values);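 active means both replicates at 50% or more, plus weaker picks with an unusually low signal ratio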;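 further: stock transfer was 100 nL into about 20 µL; 0% = negative control wells and 100% = wells with untagged competitor protein; inactives centre near -12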
Sa growth 42C second temp: recorded beside Sa growth 42C, whose call it bears; relative growth, %; measured here: growth at 30 °C;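 optical density after 20 h as mean of two plates; 100% = untreated growth and lower means inhibition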
* marks the source's active call; other numbers are inactive results; nt = no result given.

SMILES	Sa growth 42C	Sa growth 42C second temp	GIV Gai3 FP	HCMV UL50-53 inh
CCOc1cccc(CC(=O)N2CCc3c([nH]c4ccc(OC)cc34)C2c2ccc(F)cc2)c1OCC (stereo unspecified)	104	89	101	-50
COc1ccc(N=c2oc3cc(OC(C)=O)ccc3cc2C(=O)NC(C)=O)cc1	nt	nt	107	-30
CN(Cc1ccccc1)C(=O)CC(=O)N(C)Cc1ccccc1	127	88	nt	-12
Cc1ccc(S(=O)(=O)N2Cc3ccccc3CC2C(=O)Nc2cccc3ccccc23)cc1 (stereo unspecified)	91	81	99	nt
O=C(O)CCc1cc(=O)[nH]o1	83	88	95	13
COC(=O)c1cn[nH]c1NC(=S)Nc1ccccc1C	88	76	108	-16
Cc1ccc(C)c(CN2C(=O)c3ccccc3Sc3ccc(C(=O)NCc4cccs4)cc32)c1	114	88	98	nt
CC(C)(C)n1nc2c(c1NC(=O)c1ccc(Cl)cc1)CSC2	74	59	102	nt
O=C(COc1ccc(F)cc1)Nc1ccc2nc(SCc3ccccc3)sc2c1	99	88	104	-32
O=C(Nc1ccccc1N1CCCC1)C1COc2ccccc2O1 (stereo unspecified)	79	88	nt	-2
CCOC(=O)c1cc(-c2ccccc2)n(CCC(=O)NCCc2ccccc2)c1C	111	96	98	nt
COc1cc(C2C3=C(CC(C)(C)CC3=O)OC3=C2C(=O)CC(C)(C)C3)ccc1OCc1ccc(F)cc1	nt	nt	108	-14
N#C/C(=C\c1ccc(O)c(O)c1)C(=O)c1ccc(O)c(O)c1	nt	nt	248	-55
CCc1ccccc1NC(=O)c1cc(S(=O)(=O)N2CCC(C)CC2)cn1C	95	94	105	nt
COc1ccc(CCNC(=O)c2oc3ccc4c(c3c2C)C(O)CC(C)(C)O4)cc1OC (stereo unspecified)	74	73	100	-29
CC1CC(O)(CC(O)(c2ccccc2)c2ccccc2)C(C)CN1C (stereo unspecified)	98	95	nt	5
c1ccc(CNC2CC2)nc1	99	80	105	-12
CC(C)Cn1c(NC(=O)NC(C)(C)C)c2ccccc2nc1=O	95	85	102	-43
Cc1cccc(Nc2ccc(NCc3ccccc3)nn2)c1	90	84	100	-63
CCOC(=O)c1ccc(NC(=O)CN2CCN(C(=O)c3ccco3)CC2)cc1	104	97	98	12
COC(=O)c1sccc1S(=O)(=O)Nc1ncc(C)cc1Br	105	93	93	-5
O=C(C1CCCCC1)N1CCN(c2ncnc3c2cnn3-c2ccccc2)CC1	103	84	98	-24
COc1cc(-c2cc3n(C)c(C)c(CCC(=O)NC4CCC(C)CC4)c(=O)n3n2)cc(OC)c1OC (stereo unspecified)	101	81	100	nt
CC1=C(C(=O)Nc2ccccc2)C(c2ccccc2)NC(=O)N1 (stereo unspecified)	112	99	100	nt
Cc1ccc(Sc2ncccc2NC(=O)c2cccc3ccccc23)cc1	107	82	104	-32

Further entries
SMILES	Sa growth 42C	Sa growth 42C second temp	GIV Gai3 FP	HCMV UL50-53 inh
CCCNC(=O)C1CCN(c2nc3ccc(CC)cc3s2)CC1	88	87	102	4
CC(C)(C)OC(=O)N1CCC[C@H]1C(=O)N1CCN(c2ccccc2)CC1	71	91	nt	-15
COc1ccc(-n2cc(-c3ccccc3)nc2SCC(=O)Nc2ccccc2C)cc1	104	92	108	nt
COc1ccc(NC(=O)CN2C(=O)C(C)(C)c3ccccc32)c(OC)c1	nt	nt	106	10
CC(C)c1ccc(NNC(=O)C2CCC2)cc1	87	91	106	-42
COc1ccc(-c2cc3ccc(O)c(CN4CCCC4)c3oc2=O)cc1OC	88	99	148	nt
Cc1ccc(NC(=O)C2=C(N)C(C(=O)Nc3c(F)c(F)c(F)c(F)c3F)SC2=NCc2ccco2)c(C)c1 (stereo unspecified)	77	83	nt	-11
CCCC(O)c1nc2ccccc2n1CCCCOc1cccc(OC)c1 (stereo unspecified)	nt	nt	107	5
CCOC(=O)C1=C(C)N=c2s/c(=C\c3ccc(OC(C)=O)c(OC)c3)c(=O)n2C1c1ccccc1OC(C)C (stereo unspecified)	nt	nt	103	-6
O=C(NCc1ccccc1)N1CCc2c(sc3c2CCCC3)C1c1ccccc1 (stereo unspecified)	93	83	104	nt
Cc1nnc(SCc2nnc(-c3ccccc3)o2)o1	95	91	102	4
COc1ccccc1N1CCN(CCCNS(=O)(=O)c2ccc3c(c2)C(C)(C)C(=O)N3C)CC1	98	84	102	-19
CCC(=O)OCC(=O)Nc1ccc2c(c1)c1ccccc1n2CC	104	100	nt	2
CCN1CCN(C(=O)c2ccc(Cn3c(=O)[nH]c4cc(OC)c(OC)cc4c3=O)cc2)CC1	91	89	105	-18
CCn1cc(C(=O)N2CCN(Cc3ccc4c(c3)OCO4)CC2)c2cc(OC)c(OC)cc2c1=O	88	85	97	-9
O=C(CN1C(=O)CCCc2ccccc21)N1CCN(c2ccccn2)CC1	nt	nt	109	-8
Cc1c(C(=O)N2CCCC2)c(S(=O)(=O)N2CCc3ccccc32)c(C)n1C	113	83	96	-18
COc1cccc(/C=N/NC(=O)CSc2nnnn2-c2ccccc2)c1	91	89	96	-15
Cc1c(Cl)cccc1NC(=O)Nc1nnc(N(C)C2CCCCC2)s1	95	97	107	-5
O=C(CC1Oc2ccc(Cl)cc2NC1=O)NCc1ccccc1 (stereo unspecified)	111	92	100	-14
COc1ccc(CCC(=O)NCc2ccc3c(c2)CCN3C(=O)c2cccc(C)c2)cc1	112	82	103	nt
Cc1oc(-c2ccc(Cl)cc2)nc1CN1CCC(C(=O)N2CCc3ccccc3C2)CC1	118	97	101	-5
Cc1cc(NC(=O)c2cc(-c3ccc(Br)cc3)nc3ccccc23)no1	nt	nt	112	13
C=CCN(c1nc2nc(C)cc(C)n2n1)S(=O)(=O)c1ccc(C)cc1	nt	nt	104	-26
CCc1nnc2c3ccccc3nc(N3CCN(c4cc(Cl)ccc4C)CC3)n12	99	99	111	nt

The results go on:
SMILES	Sa growth 42C	Sa growth 42C second temp	GIV Gai3 FP	HCMV UL50-53 inh
NC(=O)CSc1nc2c(c(=O)n1-c1ccccc1)C1(CCCC1)Cc1ccccc1-2	nt	nt	99	-32
Cc1nc2ccccc2n1CCc1nc2c3ccccc3nc(SCC(=O)Nc3cccc(C(F)(F)F)c3)n2n1	104	86	105	nt
CN(CC(=O)Nc1ccc2c(c1)OCCO2)S(=O)(=O)/C=C/c1ccccc1	94	80	nt	-18
Cc1cccc(N2C(=S)NC3c4cc(Cl)cc(Cl)c4OC2(C)C3C(=O)N(C)C)c1 (stereo unspecified)	79	68	105	nt
CC(=O)c1ccc(NC(=O)c2sc(-n3nc(C)c(Cc4ccccc4)c3C)nc2C)cc1	100	84	103	-20
COc1cc(NC(=O)c2ccco2)c(OC)cc1NC(=O)CCC(=O)NC1CCN(Cc2ccccc2)CC1	124	95	104	-30
Cn1nc2n(c1=O)-c1ccccc1SC2	88	82	104	-26
CCSc1nc2ccccc2n1C(CC(=O)O)C(=O)O (stereo unspecified)	99	104	101	2
Cc1cccc(N(C)c2cc(C)nc3nc(C)nn23)c1	103	84	104	-13
COC(=O)CN1C(=O)CSc2ccc(S(=O)(=O)Nc3cccc(Cl)c3C)cc21	126	85	98	nt
Cc1cccc(N=Nc2c(C)[nH]n(C(N)=S)c2=O)c1	104	96	100	-32
CC(C#N)Oc1ccc(Cl)cc1Cl (stereo unspecified)	95	56	101	3
CCc1cc(-c2nc(N)ncc2-c2ccc(OC)cc2)c(O)cc1OC	89	86	104	-29
O=C(CCC1N=C2c3ccccc3N=C(SCc3cccc(F)c3)N2C1=O)NCCc1ccccc1 (stereo unspecified)	81	84	102	nt
CCN(CC)S(=O)(=O)c1ccc2c(c1)nc(-c1ccccc1)n2C	100	97	nt	-9
Cc1ccc2c(c1)NC(=O)C(CC(=O)Nc1cc(Cl)ccc1C)O2 (stereo unspecified)	96	87	102	-20
O=C(Cn1c(=O)n2nc(-c3ccccc3)nc2c2ccccc21)Nc1ccccc1C(F)(F)F	103	87	104	-44
COc1ccc(Cl)cc1N=C(C#N)C1=C(O)c2ccccc2C1=O	113	92	106	-7
CCOC(=O)c1cc(-c2ccccc2)n(CC(=O)Nc2ccc(OC)cc2OC)c1C	133	70	103	nt
CCCc1cc(=O)[nH]c(SCC(=O)N(CC(C)C)C2CCS(=O)(=O)C2)n1 (stereo unspecified)	80	85	nt	-15
CCOC(=O)c1c(C)[nH]c(C)c1S(=O)(=O)NCCCc1ccco1	94	85	101	6
O=C(O)c1cccnc1Sc1cccc(C(F)(F)F)c1	96	96	nt	-1
COc1ccc(C)cc1NC(=O)CSc1nc2c(sc3ncccc32)c(=O)n1Cc1ccc(F)cc1	nt	nt	102	55*
O=C(c1cc(C2CC2)[nH]n1)N1CCN(c2ccc(N3CCOCC3)nn2)CC1	nt	nt	105	-23
COc1ccc(OC)c(NC(=O)c2csnn2)c1	105	77	103	-13

Ordered by count of non-hydrogen atoms (rising): part of the list above
SMILES	Sa growth 42C	Sa growth 42C second temp	GIV Gai3 FP	HCMV UL50-53 inh
CC(C)c1ccc(NNC(=O)C2CCC2)cc1	87	91	106	-42
COc1ccc(OC)c(NC(=O)c2csnn2)c1	105	77	103	-13
Cc1cccc(N=Nc2c(C)[nH]n(C(N)=S)c2=O)c1	104	96	100	-32
O=C(O)c1cccnc1Sc1cccc(C(F)(F)F)c1	96	96	nt	-1
COC(=O)c1sccc1S(=O)(=O)Nc1ncc(C)cc1Br	105	93	93	-5
Cc1cccc(Nc2ccc(NCc3ccccc3)nn2)c1	90	84	100	-63
CC(C)Cn1c(NC(=O)NC(C)(C)C)c2ccccc2nc1=O	95	85	102	-43
COc1ccc(Cl)cc1N=C(C#N)C1=C(O)c2ccccc2C1=O	113	92	106	-7
C=CCN(c1nc2nc(C)cc(C)n2n1)S(=O)(=O)c1ccc(C)cc1	nt	nt	104	-26
CCc1cc(-c2nc(N)ncc2-c2ccc(OC)cc2)c(O)cc1OC	89	86	104	-29
O=C(CN1C(=O)CCCc2ccccc21)N1CCN(c2ccccn2)CC1	nt	nt	109	-8
COc1ccc(-c2cc3ccc(O)c(CN4CCCC4)c3oc2=O)cc1OC	88	99	148	nt
COc1ccc(N=c2oc3cc(OC(C)=O)ccc3cc2C(=O)NC(C)=O)cc1	nt	nt	107	-30
NC(=O)CSc1nc2c(c(=O)n1-c1ccccc1)C1(CCCC1)Cc1ccccc1-2	nt	nt	99	-32
CCOC(=O)c1cc(-c2ccccc2)n(CC(=O)Nc2ccc(OC)cc2OC)c1C	133	70	103	nt
CC(=O)c1ccc(NC(=O)c2sc(-n3nc(C)c(Cc4ccccc4)c3C)nc2C)cc1	100	84	103	-20
CCN1CCN(C(=O)c2ccc(Cn3c(=O)[nH]c4cc(OC)c(OC)cc4c3=O)cc2)CC1	91	89	105	-18
Cc1ccc(C)c(CN2C(=O)c3ccccc3Sc3ccc(C(=O)NCc4cccs4)cc32)c1	114	88	98	nt
Cc1ccc(NC(=O)C2=C(N)C(C(=O)Nc3c(F)c(F)c(F)c(F)c3F)SC2=NCc2ccco2)c(C)c1 (stereo unspecified)	77	83	nt	-11
COc1cc(NC(=O)c2ccco2)c(OC)cc1NC(=O)CCC(=O)NC1CCN(Cc2ccccc2)CC1	124	95	104	-30

A different layout for part of the listing above.
Each structure is followed by: Sa growth 42C	Sa growth 42C second temp	GIV Gai3 FP	HCMV UL50-53 inh
O=C(CCC1N=C2c3ccccc3N=C(SCc3cccc(F)c3)N2C1=O)NCCc1ccccc1 (stereo unspecified)
 : 81	84	102	nt
CCN(CC)S(=O)(=O)c1ccc2c(c1)nc(-c1ccccc1)n2C
 : 100	97	nt	-9

Carrying on.
SMILES	Sa growth 42C	Sa growth 42C second temp	GIV Gai3 FP	HCMV UL50-53 inh
O=C(Cn1cc(I)c(=O)[nH]c1=O)N1CCOCC1	105	82	99	-12
COc1cc(C(C#N)N2CCCCC2)ccc1O (stereo unspecified)	108	84	nt	-16
CC(C)c1ccc(-c2noc(COC(=O)c3c[nH]c4ccccc34)n2)cc1	116	99	nt	14
Cc1nnsc1C(=O)NC1CCN(Cc2ccccc2)CC1	95	98	104	3
Cc1ccc(Oc2ncccc2C(=O)NCC(=O)O)cc1	106	89	97	-13
Cc1cn2c(=O)cc(COC(=O)c3cccc(NC(=O)C(C)Oc4ccccc4)c3)nc2s1 (stereo unspecified)	72	80	96	nt
Cc1ccc2nc3c(cc(C(=O)NCCN4CCOCC4)c(=N)n3CC3CCCO3)c(=O)n2c1 (stereo unspecified)	101	85	109	nt
CCCn1nc(C(=O)Nc2nc3ccccc3[nH]2)c2ccccc2c1=O	120	92	nt	-12
CCN(CC)c1ccc(NS(=O)(=O)c2cc(-c3cc(C)no3)ccc2C)c(C)c1	108	96	112	nt
O=C(NC1CCCc2ccccc21)c1ccc2c(c1)sc1nc(-c3ccc(F)cc3)cn12 (stereo unspecified)	106	77	105	nt
CN1CCN(NC(=O)COc2ccc(C#N)cc2)CC1	99	91	nt	-23
Cc1ccc(C(=O)Nc2ccc(OCc3cc(=O)n4c5c(sc4n3)CCCC5)cc2)cc1	100	82	110	8
COc1ccc(C2CC(=O)c3cc(-c4nc(-c5cccc(Cl)c5)cs4)c(=O)[nH]c3C2)cc1OC (stereo unspecified)	94	101	141	-15
Cc1ccc(S(=O)(=O)/N=C(\N)Nc2nc(C)c3ccccc3n2)cc1	96	81	101	-12
O=C(c1cccnc1)N1CCN(c2ccc(=O)n(-c3ccc(F)cc3)n2)CC1	nt	nt	105	-43
CCc1nc(-c2cc(S(=O)(=O)NCC(=O)NC3CCCC3)c(C)s2)no1	nt	nt	103	-8
CCOC(=O)c1ccc(N2C(=O)c3n[nH]c(-c4ccco4)c3C2c2ccc(O)c(OCC)c2)cc1 (stereo unspecified)	110	60	101	-9

High-throughput results from PubChem BioAssay.
